# Assay outcomes from PubChem.
# ClpP mod – qHTS Assay for Activators of ClpP | ATP-dependent Clp protease proteolytic subunit (Bacillus subtilis (strain 168)), P80244 | purified B. subtilis ClpP, FRET peptide cleavage, 20 min | Potency, µM (top dose mostly 57.5 µM), for inactives: at the highest dose activity change, negative = active | actives 1.9% (n = 340,000) | AID 651965, 2013; active = well fitted falling curve with a large enough effect; inconclusive = small, poorly fitted or top-dose-only effect; inactive = no such curve, though single readings can be large or run the other way; note: potency is the fitted concentration of half-maximal effect; the source files actives as falling curves though it sought activators and does not explain the sign; nearly all actives have a fitted effect of over 65% in size; many hits overshoot -100%
# Target sequence (P80244 whole entry, looked up): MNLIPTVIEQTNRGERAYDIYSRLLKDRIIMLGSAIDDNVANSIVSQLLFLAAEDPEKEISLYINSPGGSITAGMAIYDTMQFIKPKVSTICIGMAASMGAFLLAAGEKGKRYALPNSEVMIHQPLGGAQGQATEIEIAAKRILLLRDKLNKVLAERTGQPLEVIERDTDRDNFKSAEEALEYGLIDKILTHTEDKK
#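 FRET quenching reversal measured ClpP activation: 10 microg/mL B. subtilis ClpP at pH 8 with the FRET-FV decapeptide, read at 430 nm after 320 nm excitation. The 20-min minus 0-min signal was scaled between DMSO/no-enzyme wells and ADEP (5.8 microM final).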
# Sfp inh – blocks B. subtilis Sfp PPTase activity. actives 3.5% (n = 310,000). Biochemical Sfp PPTase activity, qHTS. Potency, µM, without a hit: max response, negative = inhibition, usual class: inhibitors; active = well fitted inhibition curve with a large enough effect; inconclusive = small, poorly fitted or top-dose-only effect, or another doubt; inactive = no such curve, though single readings can be large or run the other way;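 note: the enzyme is Sfp with the accession as filed and its product quenches rhodamine fluorescence; potency is the fitted concentration of half-maximal effect; 0% = enzyme reaction without inhibitor and -100% = no enzyme wells; top concentration of the series not given in the record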
#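 Fluorescence-quenching assay: 15 nM Sfp-PPTase preincubated 15 min at room temperature with compound, then 5 uM rhodamine-CoA and 12.5 uM BHQ-2-labelled YbbR peptide added. Fluorescence (ex 525/em 598 nm) read at start and after 30 min; difference gives rate.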
# gsp antagonist – antagonizes gsp, the McCune-Albright syndrome mutation | gsp-mutant cells, cAMP HTRF, 30 min; control for the full effect not named in the record | Potency, µM (highest dose often 76.9 µM), for inactives: at the highest dose activity change, negative = inhibition, most hits filed as inhibitors | actives 0.4% (n = 340,000) | AID 624288; active = falling curve of any shape with a large fitted effect; inconclusive = falling curve, mostly with a smaller effect; inactive = flat or rising curve; cell line not stated here;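 note: intracellular cAMP measured with PDE inhibitor Ro 20-1724 present during compound exposure; potency is the fitted concentration of half-maximal effect; % is set by controls: 0 for no effect and ±100 for the full control effect; nearly all actives have a fitted effect of over 65% in size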
#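 HTRF cAMP measurement after 30 min RT detection following 30 min, 37C compound treatment alongside […] (added as 300 uM solution) in G418-selected cells seeded at 2000/well and grown 16–24 h.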
# Menin-MLL FL inh – menin-MLL binding inhibition, fluorescein peptide | Fluorescence polarization, fluorescein-MLL peptide displacement from menin | FP activity change, % at 61.4 µM | 290,000 tested, under 10 active; inconclusive = falling polarisation curve, or a change in total fluorescence; inactive = total fluorescence flat and polarisation flat or rising; no compound was filed as active; the % refers to the polarisation; negative = inhibition;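 note: % of control where 0% means no effect; inhibitors lower the polarisation; unlabelled MLL peptide was the positive control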
# TRPV1 potentiator – human TRPV1 potentiation; Q8NER1; potentiation, % at 8.33 µM; actives 0.02% (n = 320,000); TRPV1-expressing cells, Fluo-8 calcium influx, capsaicin EC20 potentiation; host cell line not named in the record; control for the full effect not named in the record; active means potentiation above 80%; inconclusive means 30% to 80%; inactive means below 30%; note: 0% is about no effect
# Target sequence (Q8NER1 whole entry, looked up): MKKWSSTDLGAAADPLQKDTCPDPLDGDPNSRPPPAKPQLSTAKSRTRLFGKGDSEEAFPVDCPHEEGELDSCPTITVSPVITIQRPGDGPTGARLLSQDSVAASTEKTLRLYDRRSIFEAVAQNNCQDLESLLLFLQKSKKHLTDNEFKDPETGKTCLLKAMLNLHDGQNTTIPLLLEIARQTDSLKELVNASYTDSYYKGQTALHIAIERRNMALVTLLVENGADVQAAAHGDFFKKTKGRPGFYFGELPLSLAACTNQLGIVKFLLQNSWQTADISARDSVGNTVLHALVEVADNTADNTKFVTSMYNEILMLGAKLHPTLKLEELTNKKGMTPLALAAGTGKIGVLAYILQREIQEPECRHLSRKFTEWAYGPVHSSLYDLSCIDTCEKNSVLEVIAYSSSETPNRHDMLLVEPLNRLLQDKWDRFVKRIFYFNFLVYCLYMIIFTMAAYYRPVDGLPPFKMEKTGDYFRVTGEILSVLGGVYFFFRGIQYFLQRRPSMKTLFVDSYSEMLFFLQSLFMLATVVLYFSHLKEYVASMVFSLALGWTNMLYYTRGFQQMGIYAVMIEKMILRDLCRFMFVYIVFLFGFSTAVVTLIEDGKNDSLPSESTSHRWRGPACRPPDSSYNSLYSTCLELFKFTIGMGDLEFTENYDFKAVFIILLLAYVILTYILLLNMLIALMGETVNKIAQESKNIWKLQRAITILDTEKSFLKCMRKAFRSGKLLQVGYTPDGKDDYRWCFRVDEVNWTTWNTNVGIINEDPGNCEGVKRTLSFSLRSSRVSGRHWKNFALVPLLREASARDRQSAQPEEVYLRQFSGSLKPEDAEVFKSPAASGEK
#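 Cells expressing TRPV1 were dye-loaded with Fluo-8 and read kinetically: 10 s baseline, 3 min after compound (agonist portion), then 2 min after EC20 capsaicin (allosteric enhancer portion). Calcium-bound dye fluorescence at 480/520 nm.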
# D2 potentiator – positive allosteric modulators of human D2 dopamine receptor; P14416; potentiation, % (concentration not given with the values); AID 624464; actives 0.23% (n = 360,000); DiscoveRx D2 beta-arrestin cells, luminescence, 90 min; 100% = 57 uM dopamine signal; active = potentiation of 50% or more; inconclusive = 30% to 50%; inactive = 30% or less;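 note: compound concentration not given in the record; tested on top of an EC20 dose of dopamine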
#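 D2 cells co-treated with compound plus 50 nM dopamine (EC20) for 90 min at 37 deg C to detect potentiation. Beta-arrestin recruitment was read as enzyme-fragment luminescence after 1 h at ambient temperature. Full response was set by 57 uM dopamine.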
# gsp agonist – gsp mutant agonism | actives 0.13% (n = 340,000) | Potency, µM (top dose mostly 76.9 µM), inactives show at the highest dose activation (cAMP increase), actives largely listed as activators | gsp mutant cells, cAMP HTRF, 30 min; control for the full effect not named in the record; active = well fitted activation curve with a large enough effect; inconclusive = small, poorly fitted or top-dose-only effect, or another doubt; inactive = no such curve, though single readings can be large or run the other way; cell line not stated here;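 note: phosphodiesterase inhibitor Ro 20-1724 added with compounds to block cAMP breakdown; potency is the fitted concentration of half-maximal effect; nearly all actives have a fitted effect of over 60% in size; about a fifth of the inactives were tested at one dose only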
#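 Cells in DMEM/10% FBS with G418 were pretreated with compounds in DMSO plus […] (300 uM stock) for 30 min at 37C. cAMP was measured by HTRF (cAMP-d2 plus anti-cAMP antibody-K) after 30 min at room temperature.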
# * hit, by the source's call; ? = inconclusive; . = not tested or not shown; [ ] = dose if it differs, or a comment.
[1] CCC(=O)N1CCN(c2ccc(Cl)cc2NC(=O)Cc2ccccc2)CC1
[2] O=C(CSc1cccc[n+]1[O-])CSc1cccc[n+]1[O-]
[3] CC/C(=N\NS(=O)(=O)c1ccc(C)cc1)c1ccco1
[4] Cc1ccc(C(=O)NNC(=S)NC(=O)c2ccco2)cc1
[5] Cc1cnc([N+](=O)[O-])n1CCOC(=O)NC(=O)c1cccc(F)c1
[6] CC(=O)c1ccc(-c2ccc(C(=O)NC3CCCCCC3)o2)cc1
[7] CCC1CCCCN1CCCNC(=O)CCCOc1cc(=O)n(C)c2ccccc12 (stereo not given)
[8] O=C(c1ccco1)N1CCN(Cc2c(F)cccc2Cl)CC1
[9] CN(CCc1ccccc1)C(=O)c1ccc(NC(=O)Cc2ccc(NC(=O)C3CCN(C(=O)C4CCCC4)CC3)cc2)cc1
[10] FC(F)(F)c1nc2ncc(Cl)cc2[nH]1

Screen / compound no.	1	2	3	4	5	6	7	8	9	10
gsp agonist	9%	28%	-1%[15.4 µM]	3%[15.4 µM]	-5%[15.4 µM]	-23%[15.4 µM]	10%[15.4 µM]	-25%	.	-23%
Menin-MLL FL inh	0.2	-5.0	-2.2	4.8	0.4	?	-1.8	-1.6	.	0.7
ClpP mod	0.5%	.	.	.	2.2%	.	.	0.9%	-3.1%	0.3%
D2 potentiator	-8	-5	-3	-5	0	5	-8	-15	-1	-1
TRPV1 potentiator	-3	9	17	-3	-22	-7	12	0	.	-5
gsp antagonist	-11%	1%	-15%	-5%	3%	18%	?	6%	5%	-28%
Sfp inh	3%	?	10%	21%	7%	?	-2%	22%	.	9%

[11] O=C(Nc1cc2c3c(c1)CC(=O)N3CCC2)c1c(F)cccc1F
[12] Cc1ccc(SCc2nnc(NC(=O)c3ccccc3)s2)cc1
[13] COCCN(CCOC)c1nc(-c2ccc(C)cc2)nc2ccccc12
[14] CCCNC(=O)NC(C)C12CC3CC(CC(C3)C1)C2 (stereo not given)
[15] O=[N+]([O-])c1ccc(NC(=S)NCCc2ccc(F)cc2)cc1
[16] O=C(CCCSc1nc2ccccc2[nH]1)N1CCN(c2ccccc2)CC1
[17] COc1cccc(C(c2c(C)[nH]n(-c3ccccc3)c2=O)c2c(C)[nH]n(-c3ccccc3)c2=O)c1OC
[18] Cn1c(C(=O)OC(C(=O)NC2CCCCC2)c2ccncc2)cc2sccc21 (stereo not given)
[19] Fc1ccccc1CNC(=S)Nc1ccc(Cl)cc1
[20] CCOC(=O)C1=C(C)NC2=C(C(=O)CCC2)C1c1coc2ccccc2c1=O (stereo not given)

Screen / compound no.	11	12	13	14	15	16	17	18	19	20
gsp agonist	4%[15.4 µM]	-14%	-16%	-32%[inhibitor]	21%	3%	7%	2%	-1%	-1%
Menin-MLL FL inh	.	1.3	-0.3	0.7	1.7	2.2	2.7	3.3	0.8	0.2
ClpP mod	-0.3%	-3.5%	5.6%	0.4%	-1.7%	-1.9%	-2.7%	-1.7%	-2.3%	-5.3%
D2 potentiator	12	-10	-6	-3	-18	-7	-8	-6	-6	-5
TRPV1 potentiator	14	0	-3	-6	6	5	8	-3	-16	-8
gsp antagonist	5%	2%	28µM*	4%	-10%	-11%	?	-4%	-10%	-5%
Sfp inh	.	6%	-7%	-16%	?	-2%	-14%	3%	-7%	0%

[21] Cc1ccc(C(O)CN2C3=NCCN3c3ccccc32)cc1 (stereo not given)
[22] Cc1ccc(COc2ccc(S(=O)(=O)N3CCCC3)cc2C(N)=O)cc1
[23] CC(=O)OCCN1c2ccccc2Sc2cnccc21
[24] O=[N+]([O-])c1ccc(N2CCc3ccccc3C2)nc1
[25] CCc1cccc2c(C(=O)COC(=O)C3=NNC(=O)CC3)c[nH]c12
[26] COc1c(C)cc(C(=O)C2CCCN(C(=O)c3ccc4[nH]ccc4c3)C2)cc1C (stereo not given)
[27] CC(=O)N(c1ccccc1)C1SC(=O)N(c2ccccc2)C1=O (stereo not given)
[28] COc1ccc(/C=C/C(=O)OCC(=O)Nc2cccc(S(=O)(=O)NC3=NCCCCC3)c2)cc1
[29] CN(CCc1cnn(C)c1)Cc1cn(C)nc1-c1ccccc1F
[30] O=C(CN1CCN(Cc2ccccc2)CC1)NCCNc1ccc([N+](=O)[O-])cn1

Screen / compound no.	21	22	23	24	25	26	27	28	29	30
gsp agonist	32%	-2%	-2%	-1%	8%	6%	-72%[inhibitor]	-10%	-18%[15.4 µM]	-7%[15.4 µM]
Menin-MLL FL inh	-2.7	8.6	.	-1.4	-2.9	-0.8	0.5	.	0.5	6.0
ClpP mod	1.0%	.	-4.9%	-3.5%	-6.4%	.	22%	.	.	0.9%
D2 potentiator	-22	-4	-15	-38	-4	-2	1	-9	2	-2
TRPV1 potentiator	-4	7	.	-11	10	6	29	.	5	-15
gsp antagonist	12%	4%	.	-2%	3%	-18%	-1%	-22%	8%	8%
Sfp inh	-5%	22%	.	-9%	0%	-3%	12%	.	5%	11%

[31] CSc1ccccc1NC(=S)NC1CCCCC1
[32] O=C(CN1C(=O)c2ccccc2S1(=O)=O)NCc1ccco1
[33] COc1ccc(Cn2c(-c3ccc(C)cc3)nc3c(c(=O)c4ccccc4n3C)c2=O)cc1
[34] CCOc1ccc2oc(C(=O)NCC(C)(C)CN(C)C)c(C)c2c1
[35] NC(N)=NCCCC(NC(=O)c1ccccc1)C(=O)Nc1ccc2ccccc2c1 (stereo not given)
[36] Cc1ccc(-n2c(SCC(=O)OC(C)C)nnc2-c2cnccn2)cc1
[37] CN(C)CCCC(C)(O)C(C)(C)c1ccccc1 (stereo not given)
[38] COc1ccc(OCC(=O)NCCc2c[nH]c3ccccc23)cc1
[39] CCCNC(=O)c1ccccc1NC(=O)c1ccccc1SC
[40] COc1cc(CN2CC(=O)N(c3ccc(C)cc3)C2=S)cc(OC)c1OC

Screen / compound no.	31	32	33	34	35	36	37	38	39	40
gsp agonist	-3%[15.4 µM]	13%[15.4 µM]	-7%	4%	.	?	-2%	12%	2%	3%
Menin-MLL FL inh	0.4	-1.3	.	1.8	.	0.6	6.2	3.1	0.9	1.7
ClpP mod	.	.	-3.1%	3.8%	-0.7%	-5.7%	2.1%	.	-0.6%	2.4%
D2 potentiator	-11	1	-12	-11	-32	-1	-22	-3	-1	23
TRPV1 potentiator	-9	-3	4	7	-3	-9	-28	-8	8	2
gsp antagonist	-38%	4%	25µM*	6%	-2%	3%	14%	-12%	-13%	-24%
Sfp inh	5%	15%	-20%	6%	.	10%	10%	8%	-8%	6%

# Sorted by count of non-hydrogen atoms (low to high): some entries from above.
[37] CN(C)CCCC(C)(O)C(C)(C)c1ccccc1 (stereo not given)
[32] O=C(CN1C(=O)c2ccccc2S1(=O)=O)NCc1ccco1
[39] CCCNC(=O)c1ccccc1NC(=O)c1ccccc1SC
[34] CCOc1ccc2oc(C(=O)NCC(C)(C)CN(C)C)c(C)c2c1
[36] Cc1ccc(-n2c(SCC(=O)OC(C)C)nnc2-c2cnccn2)cc1
[40] COc1cc(CN2CC(=O)N(c3ccc(C)cc3)C2=S)cc(OC)c1OC
[30] O=C(CN1CCN(Cc2ccccc2)CC1)NCCNc1ccc([N+](=O)[O-])cn1
[35] NC(N)=NCCCC(NC(=O)c1ccccc1)C(=O)Nc1ccc2ccccc2c1 (stereo not given)

Screen / compound no.	37	32	39	34	36	40	30	35
gsp agonist	-2%	13%[15.4 µM]	2%	4%	?	3%	-7%[15.4 µM]	.
Menin-MLL FL inh	6.2	-1.3	0.9	1.8	0.6	1.7	6.0	.
ClpP mod	2.1%	.	-0.6%	3.8%	-5.7%	2.4%	0.9%	-0.7%
D2 potentiator	-22	1	-1	-11	-1	23	-2	-32
TRPV1 potentiator	-28	-3	8	7	-9	2	-15	-3
gsp antagonist	14%	4%	-13%	6%	3%	-24%	8%	-2%
Sfp inh	10%	15%	-8%	6%	10%	6%	11%	.

# Later entries:
[41] C=CCn1c(C)cc(C(=O)CN2C(=O)c3ccccc3C2=O)c1C
[42] CCCCC(=O)Nc1cccc(-c2csc(-c3ccccc3)n2)c1
[43] CC(C)Cn1c(CN(Cc2ccccc2)Cc2ccccc2)nc2c1c(=O)n(C)c(=O)n2C
[44] COc1ccc(Cl)cc1NC(=S)N1CCC(c2ccc(C)cc2)C1 (stereo not given)
[45] CCN(CC)C(=O)C1=C(C)N(Cc2ccc(OC)cc2)C(=O)C(CC(=O)NC2CC2)C1 (stereo not given)
[46] CCc1cccc(CC)c1NC(=S)NCC(c1cccnc1)N(C)C (stereo not given)
[47] CCCCn1c(N)c(N(CCOC)C(=O)CCCc2nc3ccccc3s2)c(=O)[nH]c1=O
[48] Nc1n[nH]c2cc(=O)n(-c3cccc(C(F)(F)F)c3)nc12
[49] Cc1nn(CC(=O)NCc2cc3ccccc3[nH]2)c(C)c1[N+](=O)[O-]
[50] COC(=O)c1ccc(NCC(=O)N2CCCCCC2)cc1
[51] COc1ccc(C)cc1Nc1nc(C)nc2sc(C)cc12
[52] CC(C)N(Cc1nc(-c2ccc3c(c2)OCO3)no1)CC1CCC(=O)N1 (stereo not given)

Screen / compound no.	41	42	43	44	45	46	47	48	49	50	51	52
gsp agonist	-48%[inhibitor]	-3%	-9%	13%	16%	2%[15.4 µM]	?	-11%	9%	.	0%	-24%
Menin-MLL FL inh	-0.5	1.7	2.0	0.9	.	-6.3	.	?	5.9	4.0	-3.9	-0.1
ClpP mod	0.5%	.	0.6%	.	-0.3%	.	35µM*	0.6%	-2.9%	.	.	1.0%
D2 potentiator	5	-5	3	-4	-1	-9	15	-7	-16	.	-5	-6
TRPV1 potentiator	-14	-7	0	-6	.	6	5	-4	16	-31	-11	-10
gsp antagonist	-19%	?	-13%	-7%	.	-1%	8%	85%[activator]	2%	.	-20%	-3%
Sfp inh	1%	-18%	-2%	-4%	.	11%	.	7%	4%	7%	-6%	17%
